High-throughput results deposited in PubChem by several laboratories.
Calb FLC = C. albicans growth modulation with fluconazole; C. albicans CaCi-2 (fluconazole-resistant clinical isolate) + fluconazole, Alamar Blue growth, 48 h; growth inhibition, % (concentration not given with the values); 300,000 compounds, 0.57% hits;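 active means most replicates above 75%; inconclusive means exactly half above 75%; inactive means most below 75%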;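 further: all wells also contain fluconazole at 8 µg/ml as a sub-toxic cotreatment; 0% = median of DMSO wells and 100% = median of geldanamycin control wells; wells of about 8 µL received 7.5 nL stock; the first replicate is given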
T cruzi inh = blocks replication of Trypanosoma cruzi; T. cruzi beta-gal in NIH3T3, luminescence, 90 h; inhibition, % (test concentration not listed); 300,000 compounds, 1.4% hits; AID 1885;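 active means mean inhibition across valid replicates above about 55%, limit read from the data; inconclusive means mean below that limit but half or more replicates reach it; inactive means mean below it, under half of replicates reach it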;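 further: signal also drops with host cell toxicity which is not excluded here; 0% = plate median of DMSO wells and 100% = zero luminescence signal; higher percent means less beta-gal luminescence so fewer parasites; stock transfer was 50 nL into about 50 µL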
Beta cell apopt = beta cell apoptosis inhibition; INS-1E cytokine-induced death, ATP luminescence, 48 h; percent of positive-control rescue, neutral wells zero; protection from apoptosis, % (test concentration not listed); 300,000 compounds, 0.8% hits;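 active means all replicates at 75% or more, or half of them and the mean; inconclusive means half reach 75% but not the mean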;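 further: 0% = cytokine-treated negative control wells and 100% = positive control rescue; higher means more ATP so stronger rescue from cytokine killing; wells of about 40 µL received 100 nL stock; the first replicate is given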
LANA-H2A inh = blocks KSHV LANA binding to histone H2A/H2B | Q9QR71 | cell-free LANA-H2A/H2B peptide, fluorescence polarization | inhibition, % (concentration not given with the values) | 320,000 compounds, 0.6% hits | AID 2629; in the data active means inhibition mostly above about 10%, no sharp cut-off; inactive means mostly below about 6.7%;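 further: stock transfer was 7.5 nL into about 10 µL; 0% = median of vehicle wells and 100% = median of positive control wells; one replicate is shown; the record names a cut of 25% in any replicate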
Bfl-1 A1 inh = inhibitors of the anti-apoptotic protein A1, read as caspase activation; MEF A1-2A-BIM cells, Caspase-Glo 3/7 luminescence, 3 h; percent of clofoctol response, vehicle zero; caspase activation, % (test concentration not listed); 330,000 compounds, 0.066% hits; AID 2462;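 active means over half of replicate activation scores above 10%, or exactly half above 10 with the replicate mean above 10; inconclusive means replicate mean below 10 yet half the replicates above 10; inactive means over half of replicates below 10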;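 further: wells of about 30 µL received 50 nL stock; many hits fall short of the cut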
Beta2AR agonist = human beta-2 adrenergic receptor agonism by FAP; response, % (concentration not given with the values); Am2.2-beta2AR cells, FAP receptor internalization, flow cytometry; reference of the scale not given here; AID 504454; P07550; 340,000 compounds, 0.43% hits;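 active means response above a set limit, near 3 SD of response in nonfluorescent compounds, cut at about 42% in these data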;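 further: stock transfer was 100 nL into about 11 µL; a reference agonist was the positive control; negative values mostly stem from fluorescent compounds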
Target sequence (P07550 whole entry, looked up): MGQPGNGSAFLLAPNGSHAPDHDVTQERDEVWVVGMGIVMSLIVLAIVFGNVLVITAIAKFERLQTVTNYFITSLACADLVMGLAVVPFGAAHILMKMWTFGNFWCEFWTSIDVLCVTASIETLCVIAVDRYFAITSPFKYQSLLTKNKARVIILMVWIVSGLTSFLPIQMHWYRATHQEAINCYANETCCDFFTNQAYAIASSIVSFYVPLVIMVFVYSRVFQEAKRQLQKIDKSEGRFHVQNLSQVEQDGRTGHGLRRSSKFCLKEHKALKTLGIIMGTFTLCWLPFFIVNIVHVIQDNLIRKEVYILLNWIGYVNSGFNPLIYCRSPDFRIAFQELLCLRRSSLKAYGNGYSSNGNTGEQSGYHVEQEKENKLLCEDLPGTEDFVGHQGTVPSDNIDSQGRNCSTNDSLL
rRNA inh HTS = inhibits bacterial ribosomal RNA function over humanized ribosomes. AID 720706. E. coli WT GFP vs humanized-ribosome RFP mutants, fluorescence, 24 h; active compounds read low; DMSO median 0, no signal -100. 350,000 compounds, 1.6% hits. GFP signal change (wild-type ribosome), % (concentration not given with the values);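 active means significant combined selectivity score with lowered wild-type GFP, culture density cut under 30%, mutant RFP and density less affected; inactive means any of these conditions unmet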; further: one replicate is shown; some compounds called inactive have numbers as strong as hits
ALR H2O2 inh = human ALR oxidase inhibition via reduced H2O2 | inhibition, % (no concentration beside the values) | purified ALR, DTT oxidation, H2O2 HRP-luminol luminescence | 290,000 compounds, 3.8% hits;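 active means mean and each replicate at 75% or more; inconclusive means only one of the two met; inactive means neither met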;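 further: stock transfer was 7.5 nL into about 7.5 µL; 0% = neutral wells and 100% = wells with inactivated enzyme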
Target sequence (P55789 whole entry, looked up): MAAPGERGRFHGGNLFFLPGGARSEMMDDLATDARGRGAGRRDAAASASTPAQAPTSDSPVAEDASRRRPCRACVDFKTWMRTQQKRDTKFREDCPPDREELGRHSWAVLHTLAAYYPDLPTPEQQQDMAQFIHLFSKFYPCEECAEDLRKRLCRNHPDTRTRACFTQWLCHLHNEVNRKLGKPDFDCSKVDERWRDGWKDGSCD
rRNA inh HTS OD600 = second read-out of rRNA inh HTS, no call of its own (marks repeat the call); OD600 change, %; measured here: OD600 growth;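 optical density of the mix in the first replicate; 0 = DMSO median and -100 = no signal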
rRNA inh HTS RFP = further read-out of rRNA inh HTS, marked with its call; RFP signal change, %; measured here: RFP humanized mutant strains;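 first replicate; 0 = DMSO median and -100 = no signal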
Starred values were filed as active, the others as inactive; u = inconclusive; x = no result given.

smiles	Calb FLC	T cruzi inh	Beta cell apopt	LANA-H2A inh	Bfl-1 A1 inh	Beta2AR agonist	rRNA inh HTS	rRNA inh HTS OD600	rRNA inh HTS RFP	ALR H2O2 inh
O=C(Nc1ccc(Cl)c(Cl)c1)N1CCOCC1	-2.3	-9.3	-0.6	0.3	1.2	27.2	1.9	5.8	-0.5	-24.2
COc1ccc(S(=O)(=O)NC2CCCCCC2)c(OC)c1	2.9	6.8	-1.5	-2.9	-0.7	-0.1	-3.1	-4.6	-3.1	-3.1
COc1ccc(NC(=S)N2CCN(c3ccccn3)CC2)cc1OC	21.5	-2.9	3.9	-1.0	0.2	-9.1	x	x	x	-18.3
O=C(NCCCN1CCOCC1)c1ccc(Cl)cc1[N+](=O)[O-]	-7.9	-9.9	-1.0	1.4	-1.3	5.9	13.2	13.8	-0.8	x
O=C(OCc1ccccc1Cl)c1cccnc1Cl	2.4	-17.4	-7.2	-16.5	-2.9	1.0	-5.2	-20.8	-3.0	0.6
CC1(C)Nc2ccccc2N(CCC(=O)N2CCOCC2)C1=O	-10.1	-6.0	0.0	-2.8	1.3	2.8	x	x	x	x
CN1CC(=O)N(CC(=O)Nc2cccc3ccccc23)C1=O	x	x	-9.9	0.1	1.0	-12.0	15.4	1.8	3.3	-29.7
O=C(Nc1nnc(S(=O)(=O)N2CCOCC2)s1)c1ccccc1Cl	-3.8	4.0	1.7	-0.1	0.0	-0.3	3.3	-14.0	-13.3	19.0
CN(Cc1ccccc1)C(=O)C1CCCN1S(=O)(=O)c1ccc(Cl)cc1 (stereo unspecified)	x	x	-11.8	-3.2	1.3	2.0	x	x	x	-0.7
Cc1cc(OCC(=O)N2CCN(c3ccccc3)CC2)c2c(C)c(C)c(=O)oc2c1	1.5	-3.2	4.0	1.1	0.4	1.5	10.1	-34.2	-3.1	-0.7
CCN(CC)S(=O)(=O)c1ccc(NC(=S)NC(=O)CC(C)C)cc1	-0.9	18.2	-4.0	2.4	1.0	-5.9	-6.0	-6.8	-2.2	2.3
COC(=O)C1=CN(c2cc(C)cc(C)c2)C=C(C(=O)OC)C1c1cccc(F)c1	-3.2	55.5*	14.8	1.6	0.1	-0.9	4.6	9.3	-2.9	-2.0
COC(=O)c1c(-c2ccc(OC)cc2)oc2ccc(-c3ccc(OC)nc3)cc12	7.5	-12.1	15.8	1.9	0.9	10.3	-1.3	4.5	-12.7	2.7
c1cncc(CNc2cccc(-c3nc4ccccc4[nH]3)c2)c1	-1.9	48.9	7.1	-2.7	-4.8	0.1	-8.6	-5.8	-2.7	-0.7
Cc1ccccc1-n1c(SCC(=O)N2CCCCC2)nc(O)cc1=O	-5.6	8.3	-14.5	6.5	-0.2	-9.5	2.6	4.9	-2.7	4.1
CN(C)CCNS(=O)(=O)c1ccc(N2CCN(c3ccc(F)cc3)CC2)c([N+](=O)[O-])c1	-17.6	52.3	0.2	-3.5	-0.4	11.7	x	x	x	u
O=C(NCC(c1ccco1)N1CCN(c2ccc(F)cc2)CC1)C(=O)NC1CCCC1 (stereo unspecified)	8.5	13.1	x	0.3	0.2	-6.1	11.2	6.0	4.0	x
Cc1ccc(CNC(=O)Cn2ccc3cc(S(=O)(=O)N4CCCC4)ccc32)o1	2.1	14.2	-3.5	-0.6	-1.2	7.2	4.3	3.2	2.3	-2.6
CN(C)S(=O)(=O)c1cc(C(=O)O)c(NC2CCCCC2)cc1Cl	-4.5	-6.2	-1.6	5.3	0.4	-1.1	x	x	x	4.0
N#Cc1nnn2c1nc(N)c1c(F)cccc12	16.3	-17.7	5.6	3.9	-0.2	1.0	2.3	3.7	0.2	-0.1
O=C1OC(c2ccc3c(c2)OCO3)=N/C1=C\c1ccc(C(=O)O)cc1	-8.6	-22.9	-7.6	0.4	0.3	5.5	10.9	14.4	-0.6	x
CCOC(=O)N1CCN(C(=O)CSCc2ccc(Br)cc2)CC1	7.2	-1.2	-9.6	-0.3	0.6	-1.3	-16.7	-22.9	-1.7	-20.6
CN(C)CCCN(C(=O)c1ccc(C(=O)c2ccccc2)cc1)c1nc2c(F)cccc2s1	-12.8	5.6	-1.0	-2.1	-0.1	-2.5	-36.8	-36.8	-0.7	-7.2
CC(=O)c1cccc(NC(=O)C2C(c3ccccc3)C2(Cl)Cl)c1 (stereo unspecified)	6.1	6.3	-0.6	2.0	-0.3	2.0	-48.9	-74.0	-12.2	-15.9
O=C(Nc1ccc(Cl)cn1)c1cccnc1	-4.0	-8.6	10.1	-0.3	1.1	-6.2	x	x	x	-1.0
COC(=O)c1ccccc1OCc1cccc(C)n1	-4.6	-0.3	-0.5	-2.7	0.3	-0.7	x	x	x	-0.6
O=C(OCC(=O)N1CCCc2ccccc21)c1cc(S(=O)(=O)N2CCOCC2)ccc1O	x	x	-2.9	4.8	-0.3	34.9	-4.4	-1.5	-0.2	3.6
CCOc1ccc(C(=O)N[C@H](C(=O)O)C(C)C)cc1	-2.8	-14.3	-12.7	-0.8	0.6	-8.3	x	x	x	-2.1
COCC1CCN(C(=O)C2CCC(=O)N(CCc3cccc(F)c3)C2)CC1 (stereo unspecified)	5.5	-0.9	-4.8	2.8	-0.4	2.3	2.2	-0.6	0.5	-1.8
O=C(c1cccs1)N1CCN(Cc2cccnc2)CC1	8.8	-4.9	-5.7	4.0	-0.2	5.4	x	x	x	2.7
O=C(c1cc(COc2cccc(C(F)(F)F)c2)on1)N1CCC(c2ccncc2)CC1	u	23.2	111.3*	-2.2	0.4	5.5	-52.2	-72.0	-9.9	-1.8
CCCCOc1ccc(OCCCN2CCOCC2)cc1	x	4.2	2.9	4.9	1.8	-4.2	x	x	x	-6.6
CN(Cc1cnccn1)Cc1nc(Cc2cccc(F)c2)no1	-1.6	0.3	-0.3	-0.1	-0.8	-1.1	12.7	12.6	0.5	6.5
CCC(C)(C)C(=O)Nc1ccc(C(N)=O)cc1	3.7	-1.1	-6.5	9.1	0.0	-4.5	x	x	x	-19.8
O=Cc1cccn1-c1c(C(=O)O)cnn1-c1ccccc1	-3.8	-4.3	-7.7	7.6	-0.7	x	9.8	-1.6	-7.7	-11.3
CC(C)C(=O)Nc1cccc(C(=O)Nc2nnc(C(C)C)s2)c1	-12.6	-2.4	-2.2	1.1	-1.2	-15.9	x	x	x	-1.4
Cc1ccc(C(=O)OCC(=O)c2ccc[nH]2)s1	9.4	-3.1	0.6	1.5	-1.3	-5.0	-1.5	-4.0	-1.8	-5.3
O=C(COC(=O)Cn1cnc2ccccc2c1=O)Nc1ccc(Cl)c(C(F)(F)F)c1	10.5	-15.1	-2.2	2.9	1.1	8.1	-3.8	-6.5	-2.1	x
CC(C)(CO)NS(=O)(=O)c1ccc2c(c1)C(=NO)c1cc(S(=O)(=O)NC(C)(C)CO)ccc1-2	26.4	-0.7	-0.3	1.4	0.5	-5.9	-15.3	-13.0	5.4	-5.4
Cc1ccc(Cl)cc1N(CC(=O)N1CCOCC1)S(C)(=O)=O	-0.5	-16.9	-3.2	2.6	-0.3	-4.0	12.3	12.4	1.5	-1.8
O=C(C1CCCO1)N1CCN(S(=O)(=O)c2ccc(Cl)cc2)CC1 (stereo unspecified)	2.8	2.0	4.7	-3.9	-0.1	-12.1	16.1	12.0	-2.0	-1.5
CCOc1nc(Nc2ccc(Cl)cc2)nc(OCC)n1	2.7	17.1	x	2.1	-1.5	-5.7	-23.5	-47.1	0.4	x
CC(=O)c1c(C)[nH]c(C(=O)NCCC2=CCCCC2)c1C	20.4	5.8	5.8	-0.1	0.0	-23.8	x	x	x	-2.4
COc1ccc(-c2n(CC(=O)OC3CC(C)CCC3C(C)C)c3ccccc3[n+]2C)cc1 (stereo unspecified)	95.1*	39.4	x	x	x	9.2	13.2	16.0	2.4	x
CCN1CCN(c2cc(=O)n(-c3cc(Cl)ccc3C)c(=O)[nH]2)CC1	15.0	-10.3	1.4	3.1	-0.2	-6.9	x	x	x	1.0
N#CCCn1cc(/C=C/C(=O)O)c(-c2ccc(F)cc2)n1	-3.7	8.6	-2.7	-9.4	0.1	-0.7	13.3	5.5	-0.6	x
CCOC(=O)C1(Cc2ccccc2)CCCN(C(=O)C=C(C)C)C1 (stereo unspecified)	0.5	13.4	x	8.8	-1.2	-7.2	-7.0	-9.0	0.7	x
CC(C)c1ccc(NS(=O)(=O)c2ccc(-n3cccn3)cc2)cc1	-29.0	5.2	-2.4	1.3	-0.1	-17.4	1.7	5.5	4.8	-3.0
COC(=O)C1=C(C(=O)OC)[C@@H]2N(C)c3ccc(OC)cc3[C@@]23C[C@@H](C(=O)OC)N(S(=O)(=O)c2ccc(OC)cc2)C3=N1	-19.5	1.3	-7.0	0.2	-0.5	8.2	-5.7	-10.5	-3.5	-14.9
COc1ccc(-n2c(COc3ccccc3)nnc2SCC(N)=O)cc1	-3.8	-2.0	2.2	3.0	0.5	7.1	x	x	x	x
CCCCN(CC)c1nc(N)c(C#N)c(CC#N)c1C#N	25.7	10.0	-3.7	0.5	0.1	5.3	x	x	x	x
COc1cc(CNCc2ccccc2C(F)(F)F)cc(OC)c1	-2.8	-5.7	-7.4	1.8	-1.2	4.5	-20.7	-13.3	-9.9	-3.0
O=C(O)CC(CNC(=O)C1CCCN1C(=O)OCc1ccccc1)c1ccccc1 (stereo unspecified)	10.4	4.2	-0.8	2.6	-0.8	-8.1	11.2	32.8	6.9	-13.6
O=C(N/C(=C\c1cccc(Br)c1)C(=O)N1CCCCC1)c1ccco1	18.8	8.9	-4.8	0.1	0.3	-6.2	x	x	x	-0.8
Cc1ccc(S(=O)(=O)Cn2nnnc2CN2CCCC3(CCCCC3)C2)cc1	-2.7	36.5	x	-1.1	0.3	-5.8	x	x	x	-3.3
Nc1c(C(=O)NCc2ccc3c(c2)OCO3)nnn1Cc1ccc(Br)cc1	-1.1	10.8	2.4	-1.0	0.4	-27.4	9.6	3.6	-12.5	x
Cn1c(SCC(=O)c2cc(Cl)c(Cl)s2)nnc1-c1ccco1	-7.2	4.8	-0.9	4.3	-0.6	-11.7	6.5	0.7	3.9	97.7*
O=C(NCc1ccc(C(F)(F)F)cc1)c1ccc2c(c1)S(=O)(=O)c1ccccc1C2=O	7.8	-11.4	-2.0	3.2	-0.1	-6.6	x	x	x	-4.0
COc1ccc(N(C(C)C(=O)NN=C2CCCC2)S(C)(=O)=O)cc1 (stereo unspecified)	0.7	-5.9	-7.9	0.0	0.3	-9.5	8.9	4.9	-1.1	3.9
COc1ccccc1C(=O)Nc1ccnn1C1CCN(Cc2cnn(C)c2)CC1	-7.8	16.8	-0.5	-2.8	0.3	-0.2	19.1	13.2	2.7	2.7
COc1ccc(NC(=O)CCc2nnc3ccc(NCc4ccco4)nn23)cc1OC	4.2	-7.6	x	1.0	0.8	5.4	8.9	-1.9	2.9	-4.7
C=CCNc1ncnc2c1[nH]c1ccc(C)cc12	-1.0	16.4	29.7	2.3	-4.9	9.9	6.7	-8.1	-2.2	x

Only part of the results is shown; count on the stated rates, not on these rows.
